Assay outcomes from PubChem.
TRPML1 blocker: qHTS for Inhibitors of the Human Mucolipin Transient Receptor Potential 1 (TRPML1); TRPML1-inducible cells, Ca2+ dye fluorescence, FDSS; active compounds read low; inhibition of EC80 agonist-evoked calcium signal; activity change, negative = inhibition, % (no concentration beside the values); actives 0.02% (n = 390,000); AID 624415, 2012; in the data active means activity change below about -50%; inconclusive means about -30% to -50%; inactive means above about -30%;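 note: stimulus is agonist 54-4 at its EC80 concentration; % is set by controls: 0 for no effect and ±100 for the full control effect; compound concentration not given in the record; the text of the record puts the active cut at -80%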
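Calcium fluorescence in TRPML1-DL cells induced overnight with Tet: a 110 s read after compound pin addition, then a 110 s antagonist read after challenge with 54-4 at 4 uM final (EC80).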
ClpP mod: qHTS Assay for Activators of ClpP | ATP-dependent Clp protease proteolytic subunit (Bacillus subtilis (strain 168)), P80244 | purified B. subtilis ClpP, FRET peptide cleavage, 20 min | Potency, µM (doses to about 57.5 µM), without a hit: at the highest dose activity change, negative = active | actives 1.9% (n = 340,000) | AID 651965, 2013; active = well fitted falling curve with a large enough effect; inconclusive = small, poorly fitted or top-dose-only effect; inactive = no such curve, though single readings can be large or run the other way; note: potency is the fitted concentration of half-maximal effect; the source files actives as falling curves though it sought activators and does not explain the sign; nearly all actives have a fitted effect of over 65% in size; many hits overshoot -100%
Target sequence (P80244 whole entry, looked up): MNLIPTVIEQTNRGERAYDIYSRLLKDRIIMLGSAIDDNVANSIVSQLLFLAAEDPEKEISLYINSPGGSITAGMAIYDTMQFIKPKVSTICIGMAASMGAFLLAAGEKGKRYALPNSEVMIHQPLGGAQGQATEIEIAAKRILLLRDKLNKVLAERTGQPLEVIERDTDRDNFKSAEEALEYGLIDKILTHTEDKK
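Purified B. subtilis ClpP, 10 microg/mL final in Tris/HCl pH8 with KCl, BSA, glycerol and Tween-20, cleaved an Abz/nitrotyrosine-quenched decapeptide. Fluorescence (ex 320, em 430) was read at 0 and 20 min at room temperature. Delta was normalized to 5.8 microM ADEP and DMSO/no-enzyme controls.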
gsp antag: qHTS for Antagonists of gsp, the Etiologic Mutation Responsible for Fibrous Dysplasia/McCune-Albright Syndrome: qHTS; gsp-mutant cells, cAMP HTRF, 30 min; control for the full effect not named in the record; Potency, µM (top dose mostly 76.9 µM), inactives show top-dose activity change, negative = inhibition, usual class: inhibitors; actives 0.4% (n = 340,000); AID 624288, 2012; active = falling curve of any shape with a large fitted effect; inconclusive = falling curve, mostly with a smaller effect; inactive = flat or rising curve; cell line not stated here;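 note: intracellular cAMP measured with PDE inhibitor Ro 20-1724 present during compound exposure; potency is the fitted concentration of half-maximal effect; % is set by controls: 0 for no effect and ±100 for the full control effect; nearly all actives have a fitted effect of over 65% in size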
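Cells, 2000/well, grown 16–24 h in DMEM 10% FBS with 0.5 mg/ml G418, then compounds plus […] (300 uM addition stock), 30 min at 37C. cAMP read by HTRF (cAMP-d2 and anti-cAMP antibody-K in lysis buffer) after 30 min RT.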
TRPV1 potentiator: HTS Assay for Compounds that Act as Potentiators of the Vanilloid Receptor 1. TRPV1-expressing cells, Fluo-8 calcium influx, capsaicin EC20 potentiation; host cell line not named in the record; control for the full effect not named in the record. actives 0.02% (n = 320,000). potentiation, % at 8.33 µM. Transient receptor potential cation channel subfamily V member 1 (Homo sapiens), Q8NER1; active means potentiation above 80%; inconclusive means 30% to 80%; inactive means below 30%; note: 0% is about no effect
Target sequence (Q8NER1 whole entry, looked up): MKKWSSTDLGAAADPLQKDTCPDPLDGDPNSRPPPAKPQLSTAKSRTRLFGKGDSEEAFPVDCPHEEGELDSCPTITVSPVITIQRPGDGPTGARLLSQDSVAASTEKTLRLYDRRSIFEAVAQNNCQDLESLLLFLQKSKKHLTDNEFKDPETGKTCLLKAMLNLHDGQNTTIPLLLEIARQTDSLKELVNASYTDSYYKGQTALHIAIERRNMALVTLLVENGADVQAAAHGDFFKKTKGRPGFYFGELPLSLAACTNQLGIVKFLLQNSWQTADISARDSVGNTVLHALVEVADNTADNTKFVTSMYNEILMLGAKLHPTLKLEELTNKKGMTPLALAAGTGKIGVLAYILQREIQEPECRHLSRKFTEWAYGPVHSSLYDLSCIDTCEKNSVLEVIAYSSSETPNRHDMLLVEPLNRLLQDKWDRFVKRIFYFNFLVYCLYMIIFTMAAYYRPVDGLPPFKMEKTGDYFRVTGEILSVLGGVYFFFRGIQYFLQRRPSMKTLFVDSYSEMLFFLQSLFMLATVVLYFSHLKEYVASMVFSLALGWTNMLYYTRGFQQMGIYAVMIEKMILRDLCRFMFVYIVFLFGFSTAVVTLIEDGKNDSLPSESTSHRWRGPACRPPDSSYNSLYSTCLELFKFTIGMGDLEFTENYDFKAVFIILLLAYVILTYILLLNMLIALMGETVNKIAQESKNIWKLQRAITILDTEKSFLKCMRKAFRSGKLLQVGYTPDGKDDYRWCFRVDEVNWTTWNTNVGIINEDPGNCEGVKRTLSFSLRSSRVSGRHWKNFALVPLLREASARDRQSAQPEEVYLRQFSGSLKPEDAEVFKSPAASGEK
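Fluo-8 calcium influx in TRPV1-expressing cells, kinetic read (ex 480/em 520 nm). Compound added and read 3 min for agonist activity, followed by capsaicin at EC20 final and 2 min further read for enhancement.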
Menin-MLL FL inh: qHTS Assay for Inhibitors Targeting the Menin-MLL Interaction in MLL Related Leukemias: Competition With Fluorescein Labeled MLL-derived Peptide; Fluorescence polarization, fluorescein-MLL peptide displacement from menin; FP activity change, % at 61.4 µM; 290,000 tested, under 10 active; AID 1766, 2009; inconclusive = falling polarisation curve, or a change in total fluorescence; inactive = total fluorescence flat and polarisation flat or rising; no compound was filed as active; the % refers to the polarisation; negative = inhibition;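 note: % of control where 0% means no effect; inhibitors lower the polarisation; unlabelled MLL peptide was the positive control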
gsp ag: qHTS for Agonist of gsp, the Etiologic Mutation Responsible for Fibrous Dysplasia/McCune-Albright Syndrome: qHTS. gsp mutant cells, cAMP HTRF, 30 min; control for the full effect not named in the record. Potency, µM (doses to about 76.9 µM), without a hit: top-dose activation (cAMP increase), hits mostly activators. actives 0.13% (n = 340,000); active = well fitted activation curve with a large enough effect; inconclusive = small, poorly fitted or top-dose-only effect, or another doubt; inactive = no such curve, though single readings can be large or run the other way; cell line not stated here;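 note: phosphodiesterase inhibitor Ro 20-1724 added with compounds to block cAMP breakdown; potency is the fitted concentration of half-maximal effect; nearly all actives have a fitted effect of over 60% in size; about a fifth of the inactives were tested at one dose only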
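Cells stably selected in G418 were plated at 2000/well, grown 16-24 hr, then given compounds in DMSO with the PDE inhibitor […] (300 uM solution added) for 30 min at 37C; cAMP was read by HTRF.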
Sfp inh: qHTS Assay for Inhibitors of Bacillus subtilis Sfp phosphopantetheinyl transferase (PPTase) | 4'-phosphopantetheinyl transferase ffp (Bacillus subtilis), Q9F4F7 | Biochemical Sfp PPTase activity, qHTS | Potency, µM, for inactives: max response, negative = inhibition, actives largely listed as inhibitors | actives 3.5% (n = 310,000) | AID 1490, 2009; active = well fitted inhibition curve with a large enough effect; inconclusive = small, poorly fitted or top-dose-only effect, or another doubt; inactive = no such curve, though single readings can be large or run the other way;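 note: the enzyme is Sfp with the accession as filed and its product quenches rhodamine fluorescence; potency is the fitted concentration of half-maximal effect; 0% = enzyme reaction without inhibitor and -100% = no enzyme wells; top concentration of the series not given in the record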
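Step 1, compound plus 15 nM Sfp-PPTase, 15 min, room temperature. Step 2, add rhodamine-CoA (5 uM) and BHQ-2-YbbR (12.5 uM). Step 3, read 525/598 nm fluorescence at 0 and 30 min.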
The depositor's hits bear a star; ? = inconclusive; / = not tested or not shown; [ ] = dose if it differs, or a comment.

SMILES	TRPML1 blocker	ClpP mod	gsp antag	TRPV1 potentiator	Menin-MLL FL inh	gsp ag	Sfp inh
COc1ccc(-c2cc(C(F)(F)F)n3ncc(C(=O)Nc4c(C)n(C)n(-c5ccccc5)c4=O)c3n2)cc1	/	/	/	2	-4.6	/	18%
CN(C)CCOc1ccc2c(c1)C(=O)C(=Cc1ncc([N+](=O)[O-])n1C)C2	35	-2.6%	/	/	/	?	/
CCOc1ccccc1C(=O)NCC(=O)OCC(=O)N1CCCC1	-7	-5.6%	11%	/	/	13%	/
COc1cccc(C(=O)Cn2c(=O)n(CC3CCCO3)c(=O)c3ccccc32)c1 (stereo not drawn)	56	-3.2%	-10%	0	3.5	19%	7%
COc1ccc(-c2csc(NC(=O)c3c(C)noc3C)n2)cc1F	-1	-18%	?	13	/	-50%[inhibitor]	/
O=S(=O)(N1CCCCC1)N1CCCN(S(=O)(=O)N2CCCCC2)CC1	-13	-2.1%	3%	-12	0.3	-44%[inhibitor]	13%
CC1CN(S(=O)(=O)c2cccc(C(=O)Nc3ccc(S(=O)(=O)Nc4ncccn4)cc3)c2)CC(C)O1 (stereo not drawn)	4	/	2%	-1	-0.7	?	12%
COc1ccc(Cl)cc1C(=O)Nc1nnn(C)n1	-11	3.4%	3%	2	2.1	-31%[inhibitor]	19%
CC(=O)N(CCCCl)C(C#N)c1ccccc1 (stereo not drawn)	-9	/	0%	3	1.4	-6%	-9%
Cc1cc(C(=O)Nc2c(C)nn(Cc3ccccc3Cl)c2C)no1	-16	-2.9%	6%	-9	4.8	6%	20%

Exported with each value named: entries from further up
structure: COc1ccc(-c2csc(NC(=O)c3c(C)noc3C)n2)cc1F
  TRPML1 blocker = -1 | ClpP mod = -18% | gsp antag = ? | TRPV1 potentiator = 13 | Menin-MLL FL inh = / | gsp ag = -50%[inhibitor] | Sfp inh = /
structure: COc1ccc(Cl)cc1C(=O)Nc1nnn(C)n1
  TRPML1 blocker = -11 | ClpP mod = 3.4% | gsp antag = 3% | TRPV1 potentiator = 2 | Menin-MLL FL inh = 2.1 | gsp ag = -31%[inhibitor] | Sfp inh = 19%

(list continues)
SMILES	TRPML1 blocker	ClpP mod	gsp antag	TRPV1 potentiator	Menin-MLL FL inh	gsp ag	Sfp inh
Cc1ccc2[nH]c(O)c(N=NC(=O)CCc3ccccc3)c2c1Br	3	-0.3%	12%	1	4.5	-14%[15.4 µM]	6%
COCCNC(=O)CN(Cc1ccc(F)cc1)C(=O)CCC(=O)Nc1nccs1	-1	/	?	-2	4.5	5%	16%
CCCN1C2CCCC1CC(NC(=O)c1ccc(F)cc1)C2 (stereo not drawn)	4	2.9%	9%	10	5.4	-77%[inhibitor]	6%
CCOC(=O)c1c(C)n(-c2ccc(C)cc2)c2c(C(C(C)=O)C(=O)O)c(Br)c(O)c(O)c12 (stereo not drawn)	5	-2.0%	-10%[15.4 µM]	-12	-2.5	-46%[inhibitor]	0.89µM*
COc1cc(/C=N/n2nnnc2N)ccc1OC(C)=O	13	0.9%	9%	-7	0.3	-5%[15.4 µM]	-1%
Cn1nnc2cc(C(=O)Nc3ccccc3)ccc21	13	0.7%	-2%	-3	-4.7	-13%	14%
CC(NC(=O)c1ccc(Cl)cc1)C(=O)N1CCCCC1 (stereo not drawn)	29	-1.7%	9%	/	2.1	-40%[inhibitor]	4%
CCc1c(C)nc(N2CCN(c3ccc(Cl)cc3)CC2)[nH]c1=O	7	0.8%	13%	?	3.3	-11%[15.4 µM]	14%
COC(=O)CN(c1ccc(Cl)cc1C)S(C)(=O)=O	-4	/	7%	7	-7.2	-3%	14%
Cc1ccccc1/C=N/Nc1ccc(Cl)nn1	-7	-1.6%	6%	13	-2.8	-2%	2%

Sfp inh, hit marks shown above
SMILES	TRPML1 blocker	gsp antag	Menin-MLL FL inh	gsp ag	Sfp inh
CCOC(=O)c1c(C)n(-c2ccc(C)cc2)c2c(C(C(C)=O)C(=O)O)c(Br)c(O)c(O)c12 (stereo not drawn)	5	-10%[15.4 µM]	-2.5	-46%[inhibitor]	0.89µM*

Next section:
SMILES	TRPML1 blocker	ClpP mod	gsp antag	TRPV1 potentiator	Menin-MLL FL inh	gsp ag	Sfp inh
COc1ccc(NC(=O)COc2ccc3c(c2)CCC3)cc1S(N)(=O)=O	-2	-0.1%	-1%	/	/	21%	/
CCCCCC(=O)N1C[C@H](O)[C@@H](n2cc(-c3ccc(F)cc3)nn2)C[C@@H]1c1ccc(OC)cc1	8	1.7%	/	/	/	-110%[inhibitor]	/
COc1ccc(C(=O)NC(=S)NC(C)(C)C)cc1Br	-12	-0.1%	-4%	-12	0.1	?	12%
Cc1cc(Br)ccc1NC(=O)C1CCCO1 (stereo not drawn)	-22	0.2%	5%	?	0.9	-12%	10%
C#CCOCCOCCOCCNc1nc(N2CCN(C(=O)Cn3cc(CCCCN)nn3)CC2)nc(N2CCN(C(=O)[C@H](C(C)C)n3cc(CCO)nn3)CC2)n1	8	2.2%	12%	15	4.3	?	-7%
CC(=O)Nc1ccc(NS(C)(=O)=O)cc1	-10	-2.5%	6%	18	-1.7	-4%	16%
COc1ccccc1NC(=O)C(C)OC(=O)/C(=C/c1ccccc1)NC(C)=O (stereo not drawn)	-10	-3.8%	-2%	10	/	3%	/
O=C(O)c1ccccc1C(=O)NCCc1c(C(=O)O)[nH]c2ccc(Cl)cc12	/	-13%	10%	7	-0.7	14%	14%
O=C(Nc1ccc(O)c(-c2nc3ccccc3s2)c1)c1cc(=O)c2ccccc2o1	-3	-2.4%	8%	11	7.5	-4%	0%
C=CCn1cccc(C(=O)Nc2ccc(Cl)cc2)c1=O	/	2.7%	-15%	-6	1.3	-14%	6%
CCCNC(=O)c1cc(-c2ccccc2)c(N2CCCCC2)s1	-4	-4.9%	3%	-2	3.5	-11%	6%
CCN1C(=O)[C@H]2[C@@H](c3ccc(-c4ccc(F)cc4)cc3)N[C@@](CC(C)C)(C(=O)OC)[C@H]2C1=O	0	-29%	-14%	-2	/	/	/
CCOc1ccc(CCNC(=O)CS(=O)Cc2nc(-c3ccccc3Cl)oc2C)cc1OCC (stereo not drawn)	-13	1.4%	2%	0	/	29%	17%
CC(NC(=O)c1ccc(Cl)c(Cl)c1)c1ccc(-c2ccccc2)cc1 (stereo not drawn)	6	-5.5%	5%	7	6.0	-47%	14%
Cc1ccc(NS(=O)(=O)c2cccc(C(=O)NCC(c3ccc(F)cc3)N3CCOCC3)c2)cc1 (stereo not drawn)	4	/	-6%	1	/	-6%[15.4 µM]	/
CCCOC(=O)c1cc(NC(=O)/C=C/c2ccccc2)ccc1O	/	/	/	-1	-6.0	/	3%
COc1ccc(S(=O)(=O)N(CCCN2CCOCC2)Cc2cccc3ccccc23)cc1	-5	-4.5%	-6%	8	-0.7	7%	?
O=C(c1cc(-c2ccccc2O)on1)N1CCc2ccccc2C1	14	-0.5%	-15%	/	3.1	?	-7%
CCN1C(=O)S/C(=C/c2ccc(Oc3ccc([N+](=O)[O-])cn3)c(OC)c2)C1=O	16	-2.0%	-7%	-3	15	-3%	11%
CCN(C(=O)c1c(-c2ccccc2)noc1C)c1ccccc1	4	0.2%	7%	19	0.2	1%	23%

Of the compounds above, two have two or more sulfur atoms:
SMILES	TRPML1 blocker	ClpP mod	gsp antag	TRPV1 potentiator	Menin-MLL FL inh	gsp ag	Sfp inh
O=S(=O)(N1CCCCC1)N1CCCN(S(=O)(=O)N2CCCCC2)CC1	-13	-2.1%	3%	-12	0.3	-44%[inhibitor]	13%
CC1CN(S(=O)(=O)c2cccc(C(=O)Nc3ccc(S(=O)(=O)Nc4ncccn4)cc3)c2)CC(C)O1 (stereo not drawn)	4	/	2%	-1	-0.7	?	12%

The listing continues:
SMILES	TRPML1 blocker	ClpP mod	gsp antag	TRPV1 potentiator	Menin-MLL FL inh	gsp ag	Sfp inh
Cc1ccccc1C(=O)Oc1cccc2c(O)cccc12	2	0.7%	-11%	12	4.4	9%[15.4 µM]	-2%
CN(Cc1ccc(F)cc1)C(=O)C(Cc1ccccc1)NC(=O)c1ccccc1 (stereo not drawn)	-19	/	0%	-20	/	15%[15.4 µM]	/
CC1=NN(/C(=N\c2nnc(C)s2)Nc2ccccc2)[C@H](c2ccc(C)cc2)S1	14	2.0%	-16%	0	-1.9	10%	6%
CC(C)n1cc(C(N)=S)c(=O)n(Cc2ccccc2)c1=O	-4	-2.7%	2%	26	-0.6	22%	16%
CC1CCCC/C1=N\Nc1ccc(S(N)(=O)=O)cc1[N+](=O)[O-] (stereo not drawn)	4	4.1%	-19%	5	-0.1	-24%	11%
CN=CC1=C(O)C(C(=O)OC)C(C)(C)CC1=O (stereo not drawn)	1	/	-14%	0	-3.1	19%[15.4 µM]	1%
CCc1nnc(NC(=O)C=C(C)C)s1	-19	-1.0%	-1%	-16	1.4	13%	0%
CCOC(=O)N1CCN(C(=O)CSc2cc(C)nc3c(-c4ccccc4OC)c(C)nn23)CC1	-6	0.8%	-19%	-5	-0.6	-89%	6%
CN(C)CC(C)(C)CNC(=O)c1cc(Br)cc(Br)c1O	13	-15%	0%	-9	6.7	-25%	9%
COC(=O)c1ccc(C2CC(=O)Nc3cc(OC)c(OC)c(OC)c32)cc1 (stereo not drawn)	6	-2.2%	3%	0	-1.4	0%	11%
CCOc1cc(/C=C/C(=O)c2ccc(OC)c(CN3CCOCC3)c2)cc(Br)c1O	-25	/	-22%	-4	?	1%	-1%
CCc1ccc(N2CCN(CCNC(=O)Nc3ccccc3)CC2)cc1	3	0.3%	11%	15	4.6	0%	12%
Clc1cc(NCc2ccccc2)ncn1	13	-2.4%	6%	-26	/	22%	/
